# Sa RN4220 lethal = growth inhibition of S. aureus RN4220, primary screen, OD600 | 16 h | hit rate 0.33% among 330,000 | inhibition, % (concentration not given with the values);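 active means z-score of -3 or lower and OD600 up to 0.18 on both plates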;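 further: plate controls were untreated cells for no effect and reference antibiotic for full effect; stock transfer was 100 nL into about 80 µL; one replicate is shown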
# PrP UTR inh = inhibition of PrP 5' UTR reporter expression. cell-based PrP 5' UTR mRNA reporter, plate reader. inhibition, % (test concentration not listed). hit rate 0.35% among 340,000;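 active means every replicate at 50% or more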;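 further: 0 = median of the neutral control wells; tested in H4 reporter cells; numbers are from one replicate; inactives centre near -14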
# BJeLR viability = MLPCN primary cell-based screen for lethality selective to Ras in HRASV12 cells; BJeLR (HRASV12) viability, CellTiter-Glo ATP luminescence, 48 h; reference of the scale not given here; inhibition, % (concentration not given with the values); hit rate 0.17% among 300,000;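 active means replicate mean above 50%; inconclusive means above 50% but judged a plate artefact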;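 further: 50 nL library stock added to about 25 µL; numbers are from one replicate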
# Autofluor counter = flagged as autofluorescent in microsphere protease counterscreen. compound autofluorescence counterscreen, microsphere flow cytometry; hits give high values. fluorescence intensity (concentration not given with the values). hit rate 3.1% among 360,000. AID 624483;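 active means at least 3 SD above the mean of all compounds, about 16000 in these data; inconclusive means too few beads counted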;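 further: 100 nL of 1 mM stock went into each well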
# ugtP null kill = growth inhibition of ugtP-null S. aureus, primary screen, RN4220 ugtP deletion, OD600. 16 h; some inactives read as strong as hits. growth inhibition, % (no concentration beside the values). hit rate 0.54% among 330,000;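 active means z-score under -3 and OD600 up to 0.15 on both plates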;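 further: plate controls were untreated wells for no effect and antibiotic for full effect; wells of about 80 µL received 100 nL stock; the first replicate is given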
# Mtb hypoxia rep = PubChem AID 1159583 | fluorescence inhibition, % (no concentration beside the values) | M. tuberculosis hypoxia-regulated fluorescent reporter, fluorescence | hit rate 0.1% among 300,000;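 active means 35 to 45% if threefold the growth effect, above 45% if 1.5-fold the growth effect; inactive means the rest, general growth blockers included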;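 further: wells of about 50 µL received 100 nL stock; 0% = vehicle wells and 100% = reference inhibitor wells; whole bacteria with a GFP reporter of the hypoxia response; strong numbers were not always called active; many hits fall short of the cut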
# Mtb hypoxia rep growth = recorded beside Mtb hypoxia rep, whose call it bears; growth inhibition, %; measured here: M. tuberculosis growth (absorbance);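 0% = vehicle and 100% = reference antibiotic; read after six days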
# Numbers without * were called inactive; ? = inconclusive; . = not tested or not shown.
SMILES,Sa RN4220 lethal,PrP UTR inh,BJeLR viability,Autofluor counter,ugtP null kill,Mtb hypoxia rep,Mtb hypoxia rep growth
Cc1cc(NC(=O)c2nn(C)c(C)c2[N+](=O)[O-])no1,3.8,-3,2,11093,3,4,6
COc1ccc(NC(=O)c2ccc(C)o2)c([N+](=O)[O-])c1,3.2,-77,2,2097,-3,10,9
CCOc1ccc(C(=O)O)cn1,1.6,-22,11,4921,-11,.,.
CCC(=O)Nc1ccc(C(=O)Nc2ccc(OC)cc2[N+](=O)[O-])cc1,3.4,-23,1,2397,-3,7,10
Cc1ccc(NC(=O)c2ccccc2-c2ccc(C(F)(F)F)cc2)cc1S(=O)(=O)N1CCOCC1,2.9,-23,-10,9779,-2,-5,-4
O=C(Cn1nnc(-c2ccccc2NC(=O)c2ccco2)n1)Nc1ccccc1,-11,-48,-3,3010,-13,17,5
Cc1nc2ccn(Cc3ccccc3)c(=O)c2cc1C(=O)N1CCN(c2ccccc2)CC1,5.4,4,7,4260,14,10,-2
CC(C)c1ccc(NC(=O)NC2(C(=O)NCc3cccnc3)CCCCC2)cc1,3.4,-9,-4,4706,11,1,0
COc1cccc(NC(=O)CCNC(=O)N2CC(=O)Nc3ccccc32)c1,2.0,-10,-3,4398,1,5,-9
O=C(c1[nH]nc2c1CCc1ccccc1-2)N1CCN(Cc2ccc3c(c2)OCO3)CC1,-0.5,4,4,5835,7,2,6
O=C(c1ccc2c3n(nc2c1)-c1ccc(Cl)cc1CO3)N1CCCCC1,6.8,-44,17,3663,-6,3,3
CN1C(=O)/C(=C\c2cc(Br)cs2)c2ccccc21,10,-67,-5,4310,11,12,10
O=C1N/C(=C/c2cccn2-c2ccccc2)C(=O)N1Cc1ccc(F)cc1,3.9,-10,6,2389,22,15,1
O=C(O)C1C2CCC(O2)C1C(=O)Nc1cnn(Cc2ccccc2)c1 (stereo unspecified),4.0,-30,-3,10866,3,4,6
Cc1cccc(-n2cc(CN3CCN(c4ccccn4)CC3)c(-c3cccc(F)c3)n2)c1,-4.2,-8,-3,2529,10,-7,3
Cc1cccc(OCC(=O)NCC(=O)N/N=C/c2ccc(O)cc2O)c1,.,-6,-1,4765,.,.,.
CC1CC1c1ccc(/C=C(\C#N)C(=O)Nc2cc(Cl)ccc2Cl)o1 (stereo unspecified),5.1,4,-19,1997,3,-2,-1
CCN1C(=O)c2ccccc2Sc2ccc(C(=O)N3CCC4(CC3)OCCO4)cc21,2.7,-15,3,7469,2,0,-6
COc1ccc(C(=O)Nc2cc(=O)n(C)c(=O)n2C)cc1OC,2.8,-20,9,5698,7,5,13
O=C(NC(CSCc1ccccc1)C(=O)NN=Cc1ccc(O)cc1O)c1ccc([N+](=O)[O-])cc1 (stereo unspecified),3.7,.,.,.,11,-2,7
N#Cc1c(N)n(CCOC(=O)c2cccc(Br)c2)c2nc3ccccc3nc12,-3.9,-2,1,3719,-14,11,9
CCCN(CCC)CCCNC(=O)c1cn(CC)c2ccc(S(=O)(=O)N3CCOCC3)cc2c1=O,5.9,-9,6,4643,11,5,1
O=[N+]([O-])c1ccc(NC(=S)NCCc2ccc(Cl)cc2)cc1,101*,-8,-5,2719,100*,-9,-4
C=CS(=O)(=O)N(Cc1ccc(Cl)c(Cl)c1)C[C@@H](O)CO,3.9,-6,.,3955,2,2,5
CCOC(=O)c1c(N=CN(C)C)sc(C=NNc2ccccc2)c1-c1ccccc1,5.6,.,.,.,-3,3,4

# Shown with each value named: entries from further up
Structure: COc1cccc(NC(=O)CCNC(=O)N2CC(=O)Nc3ccccc32)c1
  Sa RN4220 lethal = 2.0
  PrP UTR inh = -10
  BJeLR viability = -3
  Autofluor counter = 4398
  ugtP null kill = 1
  Mtb hypoxia rep = 5
  Mtb hypoxia rep growth = -9
Structure: O=C(c1ccc2c3n(nc2c1)-c1ccc(Cl)cc1CO3)N1CCCCC1
  Sa RN4220 lethal = 6.8
  PrP UTR inh = -44
  BJeLR viability = 17
  Autofluor counter = 3663
  ugtP null kill = -6
  Mtb hypoxia rep = 3
  Mtb hypoxia rep growth = 3

# (cont.)
SMILES,Sa RN4220 lethal,PrP UTR inh,BJeLR viability,Autofluor counter,ugtP null kill,Mtb hypoxia rep,Mtb hypoxia rep growth
O=C(NNC(=O)c1ccccc1F)c1cccc(-n2cccc2)c1,2.1,-22,7,?,-2,9,2
Cc1ccc(C)c(S(=O)(=O)N2CCN(C(=O)Cc3sc(C)nc3-c3ccc(F)cc3)CC2)c1,2.2,6,.,?,1,-2,1
Cc1ccc(S(=O)(=O)N2CC(=O)Nc3ccccc32)cc1C,6.8,-13,2,11101,-1,2,4
COc1cccc(NC(=O)CCC2CCN(C(=O)Cc3cccc(F)c3)CC2)c1,0.1,-12,-4,6168,6,4,-3
CCCCN(CC)C(=S)Nc1ccc2nc(N3CCN(C)CC3)cc(C)c2c1,4.6,-7,6,4020,12,13,17
CCOC(=O)C1=C(C)NC(=O)NC1c1ccc(C)o1 (stereo unspecified),3.2,-8,-2,4212,6,2,1
Cc1c(C(=O)N2CCOCC2)sc(NC(=O)Cc2ccccc2)c1C#N,4.0,-10,-2,4524,4,12,8
O=C(c1ccc(COc2ccccc2Br)o1)N1CCN(c2ccccn2)CC1,7.0,-37,0,9841,-23,5,6
COC(=O)CN1C(=O)C2C(C=Cc3ccccc3)N3C(=O)CN(CC4CC4)C(=O)[C@@]3(Cc3ccccc3)C2C1=O (stereo partly specified),1.2,.,.,.,1,12,6
CC(=O)C1=C(C)OC(N)=C(C#N)C1c1cc2cccc(C)c2nc1Cl (stereo unspecified),3.3,-19,0,5109,-2,-2,8
Cc1ccc(OCC(=O)Nc2ccccc2C(N)=O)cc1,4.6,-24,0,3939,3,7,0
C(=Nc1nccs1)Nc1nccs1,10,.,.,.,3,14,5
COCCCNCCCCOc1ccccc1-c1ccccc1,6.2,-20,4,10875,1,21,17
Cc1ccc(NC(=O)Cn2c(=O)c(C)nc3ccccc32)cc1,13,-2,-14,4216,-68,0,8
Cn1c(=O)cc(SCC(=O)N2CCN(c3ccccc3)CC2)c2ccccc21,1.9,-16,-6,3824,4,9,11
O=C(NCc1ccco1)C1CCN(c2nc3ccccc3n2Cc2ccc(F)cc2)CC1,0.1,-4,3,4477,-13,-7,6
Cc1cc(C)nc(NN=Cc2ccccc2Cl)n1,3.3,.,.,.,5,-5,-12
Cc1cc(C(=O)Cn2nnc3ccccc3c2=O)c(C)n1-c1ccccc1F,-4.5,27,10,2172,32,.,.
COc1ccc(C)cc1NC(=O)COC(=O)c1c(C)noc1C,3.1,.,-5,9563,4,12,4
O=C(NCc1ccc2c(c1)OCO2)C1CC(=O)N(C2CCCCCCC2)C1 (stereo unspecified),1.3,-7,1,6122,-3,18,6
CC1CCN(C(=O)COC(=O)C2CCN(S(=O)(=O)c3ccc(Cl)c(C(F)(F)F)c3)CC2)CC1,4.6,-6,6,.,0,15,6
CCOC(=O)c1c(NC(=O)c2c(C)noc2C)sc2c1CCCCC2,4.4,-6,-1,2402,6,7,11
O=C(Nc1cccc(NC(=O)c2c(F)cccc2F)n1)c1c(F)cccc1F,4.7,-4,-5,3032,4,4,-1
COCCNC(=O)c1cccc(OC2CCN(Cc3ccc(F)cc3OC)CC2)c1,2.1,-25,4,4146,9,0,5
COc1ccc([N+](=O)[O-])cc1NC(=O)CN(C)S(=O)(=O)c1ccccc1,3.2,-67,8,6515,15,8,-5
SMILES,Sa RN4220 lethal,PrP UTR inh,BJeLR viability,Autofluor counter,ugtP null kill,Mtb hypoxia rep,Mtb hypoxia rep growth
NS(=O)(=O)c1ccc(NC(=O)COC(=O)c2cc3ccccc3cc2O)cc1,4.5,-8,2,4682,2,3,-3
COc1ccc(-c2csc3ncnc(Cl)c23)cc1,12,-14,-5,5161,14,-1,12
CCc1ccccc1NC1c2ccccc2C(=O)N1Cc1ccco1 (stereo unspecified),-1.5,-11,7,6827,-10,0,12
CCOCCn1c(SCc2cccc(C)c2)nc2c1c(=O)[nH]c(=O)n2C,-4.1,-23,3,5518,-4,9,9
COc1cc(OC)c(C(=O)OC(C)C(=O)NCc2ccc3c(c2)OCO3)cc1OC (stereo unspecified),2.5,-4,.,3401,3,3,9
COc1ccc(NCc2ccc([N+](=O)[O-])s2)c(OC)c1,3.8,-25,.,2244,11,10,5
O=C1CCN(Cc2ccccc2)CCN1[C@H](CSc1ccccc1)Cc1ccccc1,.,-24,12,4274,.,.,.
O=C1CSC(c2ccccc2F)N1CCN1CCCCC1 (stereo unspecified),4.2,-21,-3,8526,-8,7,11
Cc1nn(-c2ccc(Cl)cc2)c(NC(=O)C(C)C)c(-c2ccccc2)c1=O,2.4,-2,4,4502,0,10,8
COc1ccc2ncn(-c3ccccc3)c2c1,6.8,5,0,4184,1,13,-1
CN(Cc1ccc(F)cc1Cl)S(=O)(=O)c1cccs1,1.9,-14,-6,5851,8,2,14
COc1ccc(CNC(=O)COC(=O)c2ccccc2OCC(=O)Nc2ccc(SC(F)F)cc2)cc1,-2.1,-16,-4,4716,-5,-4,-8
COCc1ccc(C(=O)N(C)C2CCCN(Cc3ccccc3F)C2)o1 (stereo unspecified),1.2,2,-1,4299,5,9,16
CCOc1ccc(NC(=S)N2CCC(C(N)=O)CC2)cc1,4.2,-15,-2,7411,9,-4,-5
COc1cccc(C(C(=O)NCc2ccco2)N(C(=O)Cn2nnc3ccccc32)C2CC2)c1OC (stereo unspecified),1.0,-7,-5,2633,3,.,.
COc1ccc(NC(=O)CSc2ccc3nnc(-c4cccnc4)n3n2)cc1OC,0.6,-8,4,6363,12,9,0
CCn1c2ccccc2c2cc(/C=N/n3c(-c4cc(C)[nH]n4)n[nH]c3=S)ccc21,.,-9,-2,3691,.,.,.
CCN1C(=O)/C(=C\c2cccn2-c2ccc([N+](=O)[O-])cc2)N(CC)C1=S,2.9,-1,9,2485,2,-6,4
COc1ccccc1Nc1ccc(C(=O)NCc2cccs2)cn1,-1.8,-5,-1,4919,-2,-1,6
COc1ccc(S(=O)(=O)NNC(=O)c2cc3ccccc3o2)cc1,3.5,-3,0,2207,-1,4,8
Cc1nc(N)sc1-c1csc(Nc2ccc(Cl)cn2)n1,-11,-40,3,16519*,-14,4,5
Cc1ccc2oc(Nc3nc(-c4ccccc4)cc(=O)[nH]3)nc2c1,-3.3,.,2,.,-23,-2,0
NS(=O)(=O)c1cccc(NC(=O)C2CC(=O)N(Cc3ccco3)C2)c1 (stereo unspecified),2.7,-16,-1,4228,2,5,10
Cc1cc(=O)c2c(o1)CC(C)(C)CC2=O,9.2,-23,0,12648,14,1,7

# Grouped by structure: those above with a Cl atom.
SMILES,Sa RN4220 lethal,PrP UTR inh,BJeLR viability,Autofluor counter,ugtP null kill,Mtb hypoxia rep,Mtb hypoxia rep growth
O=C(c1ccc2c3n(nc2c1)-c1ccc(Cl)cc1CO3)N1CCCCC1,6.8,-44,17,3663,-6,3,3
CC1CC1c1ccc(/C=C(\C#N)C(=O)Nc2cc(Cl)ccc2Cl)o1 (stereo unspecified),5.1,4,-19,1997,3,-2,-1
O=[N+]([O-])c1ccc(NC(=S)NCCc2ccc(Cl)cc2)cc1,101*,-8,-5,2719,100*,-9,-4
C=CS(=O)(=O)N(Cc1ccc(Cl)c(Cl)c1)C[C@@H](O)CO,3.9,-6,.,3955,2,2,5
CC(=O)C1=C(C)OC(N)=C(C#N)C1c1cc2cccc(C)c2nc1Cl (stereo unspecified),3.3,-19,0,5109,-2,-2,8
Cc1cc(C)nc(NN=Cc2ccccc2Cl)n1,3.3,.,.,.,5,-5,-12
CC1CCN(C(=O)COC(=O)C2CCN(S(=O)(=O)c3ccc(Cl)c(C(F)(F)F)c3)CC2)CC1,4.6,-6,6,.,0,15,6
COc1ccc(-c2csc3ncnc(Cl)c23)cc1,12,-14,-5,5161,14,-1,12
Cc1nn(-c2ccc(Cl)cc2)c(NC(=O)C(C)C)c(-c2ccccc2)c1=O,2.4,-2,4,4502,0,10,8
CN(Cc1ccc(F)cc1Cl)S(=O)(=O)c1cccs1,1.9,-14,-6,5851,8,2,14
Cc1nc(N)sc1-c1csc(Nc2ccc(Cl)cn2)n1,-11,-40,3,16519*,-14,4,5

# Screening results deposited in PubChem BioAssay by several laboratories.
